MgrA DNA FP: S. aureus MgrA activity modulators, primary screen, biochemical, S. aureus Newman, fluorescence polarization; MgrA-DNA binding; inhibition, %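 (about 10 µg/mL by stock and volumes)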; hit rate 0.13% among 84,000; AID 602314, 2012;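 active means above 50% in either of two replicates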;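 further: 0% = protein plus DNA without compound and 100% = DNA alone without protein; higher means less MgrA bound to DNA so lower polarization; one replicate is shown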
Sa helicase inh: inhibitors of S. aureus replicative helicase, primary screen, biochemical, fluorescence unwinding readout; replicative DNA helicase (DnaC/DnaB), Staphylococcus aureus; inhibition, %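 (tested at about 80 µM)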; hit rate 0.05% among 120,000; purified S. aureus helicase, fluorescence unwinding assay; about half of the hits fall short of the stated cut;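 active means both duplicates at 50% or more, or one of them with a favoured structure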;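 further: 0% = mean of negative control wells and 100% = mean of positive control wells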
* hit, by the source's call; x = no result given. Not all compounds are listed, so the mix of outcomes need not match the whole.

SMILES | MgrA DNA FP | Sa helicase inh
COc1ccc(CN2C(=O)c3ccccc3C2C(=O)NCCCN2CC(C)CC(C)C2)cc1 (stereo not given) | 0.1 | -1
COc1ccccc1CNC(=O)CCn1c(=O)c2ccccc2n(CC(=O)NCC2CCCO2)c1=O (stereo not given) | x | -16
CCCCN(CC)C(=O)c1cc2c(-c3ccc(Cl)cc3)nn(C)c2s1 | -1.7 | 9
Nc1ccc(Oc2cccnc2)nc1 | -0.5 | x
CCc1cc2c(cc1C(=O)c1ccc(I)cc1)OCCO2 | -2.8 | 11
Cc1ccc2nc(C)nc(-c3ccccc3)c2c1 | 1.7 | 12
CCOC(=O)c1cnc2c(OC)cccc2c1NCC1COc2ccccc2O1 (stereo not given) | x | 1
N#CCSc1nn(-c2ccc(F)cc2)c(=S)s1 | x | -19
O=C(Nc1ccccn1)c1ccc(Cl)s1 | 1.2 | -12
O=C(O)c1ccc(-c2cnc3ccccc3n2)cc1 | -3.5 | 4
CC1=NN(CCC#N)C(c2ccccc2)C1 (stereo not given) | 2.1 | 13
CCCC(=O)Nc1ccc(NC(=O)c2ccc(OC)cc2)cn1 | -1.8 | 5
COc1ccc(OC)c2nc3c(cc12)CCCCC3 | -0.8 | x
O=C(C1CC1(c1ccccc1)c1ccccc1)N1CCCCC1 (stereo not given) | 1.8 | -3
Clc1ccc(-c2csc(-c3cccnc3)n2)cc1 | -2.4 | x
CCNC(=O)CSc1n[nH]c(-c2ccc(C)cc2)n1 | x | -10
Cc1nnc(-c2ccccc2)nn1 | x | 2
C=CCc1cccc2cc(C(N)=S)c(=N)oc12 | -0.7 | 12
COc1cccc2c1OC1(C)C(C(=O)Nc3ccc(C)cc3C)C2NC(=S)N1c1ccc(F)cc1 (stereo not given) | -0.7 | 3
CN(CC(=O)Nc1ccc(F)c(F)c1F)C(=O)c1ccc(N2CCCC2=O)cc1 | x | -14
Cc1cc(C)c2c(N)c(S(=O)(=O)c3ccccc3)sc2n1 | 1.9 | 8
O=S(=O)(Cc1ccco1)Cc1nc(-c2ccc(Cl)cc2)cs1 | x | 16
CCS(=O)(=O)c1nc(S(=O)(=O)c2ccc(C)cc2)c(NCc2ccco2)s1 | x | 1
CC1CCCCN1CCNC(=O)c1cccn2c(=O)c3c4c(sc3nc12)CCCC4 (stereo not given) | -2.2 | 38
COc1ccc(-c2cc(C(=O)N3CCCC3)no2)cc1 | x | 12
NNC(=O)c1ccco1 | x | 11
O=C(OCc1nc2ccccc2s1)c1ccc2c(c1)C(=O)N(Cc1ccco1)C2=O | x | 4
Cc1csc2c(C#N)c(=O)c3c(n12)CCC3 | x | 0
COc1cc(NC(=O)CCOc2ccc(F)cc2)cc(OC)c1OC | -1.9 | x
COC(=O)c1cc2c(C(F)(F)F)nn(C)c2s1 | -0.8 | x
CC(CCc1ccccc1)N1CCN(c2ccccc2F)CC1 (stereo not given) | -1.1 | 1
CCc1cccc(CC)c1N(COC)C(=O)Cn1cnc2ccccc21 | x | -10
CCCCOc1ccc(C(=O)Nc2ccc(-c3nc4ccccc4o3)c(O)c2)cc1 | 1.8 | 0
O=C1NC(=Nc2cccc(C(F)(F)F)c2)S/C1=C/c1cccs1 | x | -23
O=C(c1ccccc1)c1cc[n+](Cc2ccccn2)cc1 | -3.0 | 14
COc1cccc(OC)c1C(=O)Nc1ccc(N2CCN(C(C)=O)CC2)c(Cl)c1 | -2.5 | -3
Cc1csc2ncnc(N3CCC(C(=O)O)CC3)c12 | -0.1 | x
O=C(O)c1nnn(Cc2ccccc2)c1C(=O)O | x | -35
CSc1ccc(Cl)cc1NC(=O)C(F)(F)F | -0.3 | x
CSc1nnc(NC(=O)COc2ccc(Cl)cc2Cl)s1 | x | 14
COc1ccc(C(=O)NCCS(=O)(=O)N2CCN(C(=O)c3ccco3)CC2)cc1 | x | 5
CCOC(=O)CCc1c(C)nc2ncnn2c1C | x | -11
CN(Cc1ccccc1)C(=O)c1cc2c(=O)n3ccccc3nc2n1C | x | -14
CC1CCN(c2c(S(=O)(=O)c3ccccc3)cnc3ccccc23)CC1 | -0.6 | 4
Cc1cc(OC(=O)/C=C/c2ccco2)ccc1Cl | x | 26
O=C(CSc1nnc(CNC(=O)c2cccs2)o1)NC1CCCC1 | 4.3 | 10
CCn1c(=O)c(=O)[nH]c2c(=O)oc3ccccc3c21 | 1.9 | 5
Cc1ccc(/C=C/C(=O)O)cc1S(=O)(=O)NCc1cccnc1 | x | 5
COc1cccc(CNC(=O)C(C)n2sc3ccccc3c2=O)c1 (stereo not given) | x | -7
COc1ccccc1CC(=O)NCc1csc(-c2cccs2)n1 | -3.3 | x
Cc1noc2nc(-c3ccccc3)cc(C(F)(F)F)c12 | -1.0 | -10
Cc1cc(C(=O)CSc2nnc(-c3ccco3)o2)c(C)n1-c1nccs1 | x | -2
O=C(O)COCC(=O)Nc1cccc(C(=O)O)c1 | -4.3 | x
CC1CCN(S(=O)(=O)c2ccc(C(=O)Nc3ccc4c(c3)C(=O)NC4=O)cc2)CC1 | x | -14
c1ccc(CNc2cccc3nonc23)cc1 | 14 | -25
COc1cccc(-c2noc(N3CCC4(CC3)OCCO4)n2)c1 | x | 7
Cc1c(C)c(C)c(S(=O)(=O)N=C(N)N)c(C)c1C | 4.8 | x
CCOc1ccc(C(=O)/C=C/C(=O)O)cc1 | 4.0 | x
Cc1ccc(S(=O)(=O)N2CCCCC2C)cc1 (stereo not given) | x | -7
CCOC(=O)c1[nH]c(C)c(C(=O)OCc2c(C)noc2C)c1C | x | -7
Following part
SMILES | MgrA DNA FP | Sa helicase inh
O=C(Cn1c(-c2ccccc2)noc1=O)Nc1cccc(Cl)c1Cl | -3.2 | 16
COC(=O)c1ccc(COc2ccccc2C(N)=O)cc1 | x | -1
CCN(CC)CCN1C(=O)C(=O)/C(=C(/O)c2ccc(OC)cc2C)C1c1ccc(F)cc1 (stereo not given) | -1.4 | 14
COc1ccc(S(=O)(=O)CCc2nnc(NC(=O)c3ccc(OC)c(OC)c3)s2)cc1 | -2.6 | x
CCC(C)NC(=O)c1ccc2c(c1)ncn2-c1ccc(OC)cc1 (stereo not given) | x | 12
S=C(Nc1cccnc1)NC1CCCC1 | 2.9 | 2
COc1ccc(S(=O)(=O)N2CCC(NC(=O)NCCN3CCCCC3)CC2)cc1 | x | -20
O=C(CSc1ccccn1)Nc1cc(Cl)cc(Cl)c1 | 3.8 | -4
CC(C)(C)c1csc(NC(=O)/C=C/c2ccccc2)n1 | -0.3 | -13
CC(=O)NS(=O)(=O)c1ccc(NC(=O)C2CCCC2)cc1 | -4.6 | 27
COc1ccc(/C=C2\OC(=S)N(C)C2=O)cc1 | 2.5 | 5
Cc1nnc(NC(=O)CSC2CCCCC2)s1 | x | 14
COc1ccc(CNc2ccccc2-c2nc3ccccc3[nH]2)cc1 | 0.0 | x
CC1(C)Cc2nc3sc4c(N5CCOCC5)ncnc4c3cc2CO1 | 2.7 | 5
COc1ccc(S(=O)(=O)N2CCCCC2C)cc1 (stereo not given) | -0.2 | 3
O=C(O)Cc1nnn(C2CCCCC2)n1 | x | 2
CCN(CC)C(=O)CSc1nc(C)cc(=O)[nH]1 | 0.1 | 19
CCOC(=O)c1ccc(Nc2c(C(=O)OCC)cnc3ccccc23)cc1 | -0.4 | -13
O=C(COc1ccccc1)Nc1ccccc1N1CCCCC1 | 2.0 | -15
O=C(NCC(O)c1ccccc1)c1cccs1 (stereo not given) | -0.4 | x
CCN(CCC#N)C(=O)c1c(-c2c(Cl)cccc2Cl)noc1C | -0.9 | x
CC1CCN(C(=O)c2cccn3c(=O)c4c5c(sc4nc23)CCCC5)CC1 | 0.6 | 3
CC1CCCCN1S(=O)(=O)c1ccc(C(=O)Nc2nnc(C3CC3)o2)cc1 (stereo not given) | x | 17
CC1=C(C(=O)OCCOc2ccccc2)C(c2coc3ccccc3c2=O)C2=C(CC(C)(C)CC2=O)N1 (stereo not given) | 0.4 | x
CCOC(=O)c1sc(-c2ccccc2)nc1OC(=O)c1ccc(C(F)(F)F)cc1 | -1.7 | x
CCOC(=O)c1csc(COc2ccc(C3SCCS3)cc2)n1 | -1.1 | x
COc1cc(C)c(C)cc1S(=O)(=O)N1CCCCC1c1cccnc1 (stereo not given) | -1.2 | 4
COc1cc(Cl)c(C)cc1NC(=O)c1ccc2c(=O)n3c(nc2c1)CCC3 | x | 2
NC(=O)CNC(=O)c1ccc(C(F)(F)F)cc1 | x | 14
CC1C(=O)C2(CCCCC2)C(=O)OC1c1ccccc1 (stereo not given) | 0.3 | -2
CC(C)(C)c1noc2nc(-c3cccs3)cc(C(F)(F)F)c12 | x | -6
O=C(CC1C(=O)NCCN1C(=O)Nc1ccccc1)Nc1cccc(C(F)(F)F)c1 (stereo not given) | 1.4 | 5
COc1ccc(S(=O)(=O)N(Cc2ccco2)Cc2nnc(-c3cccs3)o2)cc1 | x | 15
COc1ccc(C2CC(=O)C=C(Nc3ccccc3)C2)cc1 (stereo not given) | -2.6 | 10
CCN(CC)C(=O)c1cn(-c2ccccc2)nc1C12CC3CC(CC(C3)C1)C2 | -1.1 | 12
COc1ccc(CN2CCSCC2)c(OC)c1OC | -6.8 | x
Nc1ccc2oc(-c3ccccc3Br)nc2c1 | 0.2 | 2
COc1ccc(Nc2nc(-c3cccs3)cs2)cc1 | -2.1 | 13
O=C(NCc1ccncc1)c1cc(-c2ccc(Cl)cc2)oc1C(F)(F)F | -2.4 | x
O=S(=O)(c1ccc(Cl)cc1)N1CCCC2CCCCC21 (stereo not given) | 0.8 | 4
O=C1Cc2cc(C(=O)CSc3nnc(-c4ccoc4)c(-c4ccoc4)n3)ccc2N1 | 43 | -2
COC(=O)Cn1cc2c(n1)-c1c(oc(C(=O)N3CCCC3)c1C)CC2 | 0.0 | -1
Cn1c(=Nc2ccccc2C(=O)O)sc2ccccc21 | 1.3 | -12
COc1ccc(CN(C)C(=O)Nc2ccccc2)cc1 | -2.7 | 11
O=C(Cc1cn2ccsc2n1)N/N=C1\CCCCC1C1CCCCC1 (stereo not given) | x | -5

Given with values under each structure: 16 of the compounds above
Fields – MgrA DNA FP | Sa helicase inh
- COc1cc(C)c(C)cc1S(=O)(=O)N1CCCCC1c1cccnc1 (stereo not given)
  -1.2 | 4
- COc1cc(Cl)c(C)cc1NC(=O)c1ccc2c(=O)n3c(nc2c1)CCC3
  x | 2
- NC(=O)CNC(=O)c1ccc(C(F)(F)F)cc1
  x | 14
- CC1C(=O)C2(CCCCC2)C(=O)OC1c1ccccc1 (stereo not given)
  0.3 | -2
- CC(C)(C)c1noc2nc(-c3cccs3)cc(C(F)(F)F)c12
  x | -6
- O=C(CC1C(=O)NCCN1C(=O)Nc1ccccc1)Nc1cccc(C(F)(F)F)c1 (stereo not given)
  1.4 | 5
- COc1ccc(S(=O)(=O)N(Cc2ccco2)Cc2nnc(-c3cccs3)o2)cc1
  x | 15
- COc1ccc(C2CC(=O)C=C(Nc3ccccc3)C2)cc1 (stereo not given)
  -2.6 | 10
- CCN(CC)C(=O)c1cn(-c2ccccc2)nc1C12CC3CC(CC(C3)C1)C2
  -1.1 | 12
- COc1ccc(CN2CCSCC2)c(OC)c1OC
  -6.8 | x
- Nc1ccc2oc(-c3ccccc3Br)nc2c1
  0.2 | 2
- COc1ccc(Nc2nc(-c3cccs3)cs2)cc1
  -2.1 | 13
- O=C(NCc1ccncc1)c1cc(-c2ccc(Cl)cc2)oc1C(F)(F)F
  -2.4 | x
- O=S(=O)(c1ccc(Cl)cc1)N1CCCC2CCCCC21 (stereo not given)
  0.8 | 4
- O=C1Cc2cc(C(=O)CSc3nnc(-c4ccoc4)c(-c4ccoc4)n3)ccc2N1
  43 | -2
- COC(=O)Cn1cc2c(n1)-c1c(oc(C(=O)N3CCCC3)c1C)CC2
  0.0 | -1

(list continues)
SMILES | MgrA DNA FP | Sa helicase inh
CC(C)(C)c1cc(NC(=O)Nc2ccccc2)no1 | 0.5 | x
O=c1oc2ccccc2n1CNc1cccc(Cl)c1 | 2.4 | 0
Cc1cc2ncc(-n3cncn3)c(-c3ccccc3)n2n1 | -0.5 | x
CCOC(=O)C1CCN(C(c2ccncc2)c2c(O)cc(C)n(Cc3cccnc3)c2=O)CC1 (stereo not given) | x | 7
C/C(=N\NC(=O)c1ccn[nH]1)c1cc(O)ccc1O | x | -26
Cc1ccc(NC(=O)Nc2ccc(N(C)C)cc2)cc1 | x | 1
COC(=O)c1cc(NC(=O)CSC2=NCCS2)cc(C(=O)OC)c1 | -2.2 | -1
Cc1ccc(N(CC(=O)O)S(=O)(=O)c2ccccc2)cc1 | -1.3 | 20
CCN(CC)CCN(C)C1CCC(C)CC1 (stereo not given) | -2.4 | 10
CC(C)=CCCC(C)CN1CCC(O)CC1 (stereo not given) | -0.6 | 11
N=C1/C(=C\c2ccc(SCc3ccccc3)o2)C(=O)N=C2SC(CC(=O)N3CCOCC3)=NN12 | x | -11
CCOC(=O)c1cnc2c(cnn2C)c1Cl | -0.6 | x
Clc1ccccc1CN1CCN(/N=C/C=C\c2ccco2)CC1 | 1.1 | 10
Cc1oc(-c2ccccc2Cl)nc1CS(=O)(=O)CC(=O)NCCN1CCOCC1 | 8.7 | 1
Cc1ccc(C)c(NC(=O)C(Sc2nnnn2Cc2cccs2)c2ccccc2)c1 (stereo not given) | x | 4
O=C(COC(=O)c1ccccc1O)NCc1ccccc1 | x | 18
O=C(Cc1ccccc1)SC1=NCCS1 | -2.6 | 7
CCOC(=O)/C(=N\Nc1ccccc1)N1CCN(S(=O)(=O)c2cccc(Br)c2)CC1 | x | 7
O=C(NNC1=NCCC1)c1cccc(S(=O)(=O)Nc2ccc(Cl)cc2)c1 | x | 2
Cc1cc2oc(=O)c3c(c2cc1OCC(N)=O)CCCC3 | -2.5 | 0
Cc1ccc(CS(=O)(=O)c2ncn[nH]2)cc1 | 0.6 | x
CC1Cc2ccccc2N1C(=O)COC(=O)c1ccccc1NC(=O)c1ccco1 (stereo not given) | x | 1
Cc1nccc2[nH]c(=O)c(C(=O)NCc3ccc(Cl)cc3)cc12 | -0.6 | 8
N#Cc1c(F)cccc1NC(=O)CN1CCCCC1 | 0.8 | x
